Assay outcomes deposited in PubChem by several laboratories.
Myeloid diff 2: promotes myeloid progenitor differentiation. ER-HoxA9 myeloid progenitors, lysozyme-GFP differentiation, flow cytometry. actives 1% (n = 360,000). calls only at 10 µM. AID 624256;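 active = normalized GFP-positive differentiation at or above the plate's own cutoff, the solvent-only control mean plus 3 SD; inconclusive = no clear call, values can overlap the other calls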;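 note: cells exposed to compound for four days before flow analysis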
Salmonella PhoP GFP: PhoP-dependent GFP reporter repression – Salmonella Typhimurium, primary screen (AID 1863). S. Typhimurium PhoP-regulated promoter GFP reporter, 4 h; higher % means a stronger effect. one-dose inhibition, % at 50 µM; IC50 in µM for titrated hits. actives 0.16% (n = 300,000);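 active = inhibition over 29.93%, a cutoff 3 SD above the screen mean, later confirmed by dose response; inconclusive = inhibition over 29.93% but no dose response follow-up; inactive = inhibition at most 29.93% or unconfirmed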;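 note: 0% = low Mg2+ inducing control and 100% = high Mg2+ repressing control; strong numbers were not always called active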
HIV peptide binding: inhibitors of HIV fusion peptide binding, primary screen, biochemical, uHTS, fluorescence dequenching (AID 1986); cell-free peptide binding, fluorescence dequenching, 30 min; higher % means a stronger effect; inhibition, % at 20 µM, or IC50 in µM where a hit was titrated; actives 0.3% (n = 290,000); in the data active = inhibition mostly above about 52%, no sharp cut-off; inactive = mostly below about 76%; note: some results filed as inactive read as strong as hits
KOR beta-arrestin-1: kappa opioid receptor activators – cell-based, luminescence, uHTS, primary screen (AID 1777); KOR beta-arrestin recruitment, luminescence; higher % means a stronger effect; one-dose activation, % at 10 µM; EC50 in µM for titrated hits; actives 0.02% (n = 280,000); in the data active = activation above about 50%, passing the limit was not always enough; note: a part of the inactive calls stands beside numbers as strong as those of hits
KOR beta-arrestin-2: KOR antagonists, beta-arrestin recruitment, cell-based, luminescence, uHTS (AID 1778); inhibition, % at 10 µM; hits with a dose series show IC50 in µM; actives 0.091% (n = 290,000); KOR beta-arrestin recruitment, luminescence, antagonist mode; higher % means a stronger effect; note: strong numbers were not always called active
LYP phosphatase: PTPN22 lymphoid phosphatase activity blockers – biochemical, fluorescence intensity, uHTS (AID 1779) | recombinant LYP phosphatase, fluorescence intensity; higher % means a stronger effect | one-dose inhibition, % at 11.5 µM; IC50 in µM for titrated hits | actives 0.054% (n = 290,000);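 note: plate controls were vehicle with enzyme for no effect and no enzyme for full effect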
SIAH1 antagonists: blockers of Siah-1 interaction with plectin peptide – biochemical, fluorescence polarization, rhodamine-plectin, uHTS, primary screen (AID 1817); Siah-1 / rhodamine-plectin peptide fluorescence polarization; higher % means a stronger effect; one-dose displacement, % at 20 µM; IC50 in µM for titrated hits; actives 0.02% (n = 290,000);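 active = displacement of at least 50% at 20 µM, with a fluorescence ratio check between 0.3 and a set limit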;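 note: plate controls were Siah plus tracer with DMSO for no effect and tracer alone without Siah for full effect; strong numbers were not always called active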
Myeloid diff 2 GFP+ MAC1+ %: also measured in Myeloid diff 2; calls as there; GFP+ MAC1+ double positive, %; measured here: differentiation confirmed by MAC1 staining
Starred values were filed as active, the others as inactive; i = inactive; ? = inconclusive; nt = not tested or not shown; ! = a repeat was not active; [ ] = dose if it differs, or a comment. Cut-off read from the data, not from the text of the source, unless noted: active = inhibition above about 50%; inactive = the rest. The list is partial; count on the stated rates, not on these rows.

SMILES	Myeloid diff 2	Myeloid diff 2 GFP+ MAC1+ %	Salmonella PhoP GFP	HIV peptide binding	KOR beta-arrestin-1	KOR beta-arrestin-2	LYP phosphatase	SIAH1 antagonists
O=C1C(=O)c2ccccc2-c2ccccc21	?	nt	11.7µM*!	2.6%	7.3%	-372.0%	7.1%	-5.6%
CC(=O)c1c(C)n(C2CCCCC2)c2ccc(O)cc12	i	0.1	3.3%	-1.4%	nt	9.8%[20 µM]	-1.8%	-2.7%
COC1CC(OC2CCC3(C)C(CCC4C3CCC3(C)C(C5=CC(=O)OC5)C(OC(C)=O)CC43O)C2)OC(C)C1OC1OC(COC2OC(CO)C(O)C(O)C2O)C(O)C(O)C1O (configuration not stated)	nt	nt	1.9%	4.0%	13.9%	-146.3%	-10.1%	-3.5%
CN(C)c1ccc(-[n+]2c(-c3ccccc3)cc(-c3ccccc3)cc2-c2ccccc2)cc1	?	nt	-6.0%	-1.4%	-3.0%	-20.0%[20 µM]	-9.1%	-5.9%
O=c1c2ccccc2nc(/C=C/c2ccc([N+](=O)[O-])o2)n1-c1ccc(O)cc1	?	nt	0.9%	24.8%	25.1%	17.6%	-0.5%	10.7%
CN(c1ccccc1)S(=O)(=O)c1cc(C(=O)Nc2nc3ccccc3[nH]2)ccc1Cl	i	0.3	43.1%	2.5%	-3.7%	-15.2%	0.0%	0.8%
C[C@H]1CCC[C@@H](O)CCC/C=C/c2cc(O)cc(O)c2C(=O)O1	i	2.8	14.9%	2.7%	-0.2%	14.1%	-4.1%	2.5%
CN1/C(=C/c2cc[n+](C)c3ccccc23)C=Cc2ccccc21	?	nt	-5.3%	-3.1%	-7.2%	35.4%	-5.7%	-3.9%
CCc1cc(C(=O)NC2CCCN(Cc3ccccc3F)C2)n(C)n1 (configuration not stated)	i	1.7	-4.5%	0.8%	-0.7%	-59.0%	-14.9%	0.3%
CCSc1nsc(NC(=O)Nc2cccc(F)c2)n1	i	0.5	17.7%	6.1%	1.6%	14.5%[20 µM]	1.0%	4.8%
CC(=O)c1ccc(Sc2nnnn2-c2ccccc2)c([N+](=O)[O-])c1	?	nt	15.2%	-1.4%	2.6%	-8.9%	-5.9%	0.1%
CCN1CCN(Cc2ccc(NC(=O)c3ccc(C)c(/C=C/c4cnc(Nc5cc(N6CCNCC6)nc(C)n5)cn4)c3)cc2C(F)(F)F)CC1	i	1.2	2.7%	63.9%	0.6%	-7.2%[20 µM]	-18.8%	2.4%
O=C(Nc1nc(-c2ccc3c(c2)OCO3)cs1)c1ccncc1	i	0.9	-9.2%	0.3%	6.7%	20.8%	-6.3%	-1.0%
CN1/C(=C\C=C\C2=[N+](C)c3ccc4ccccc4c3C2(C)C)C(C)(C)c2ccccc21	nt	nt	10.2µM*	65.1%*	4.2%	-44.6%	-10.0%	nt
Cc1cccc(NC(=O)c2cccc(NS(=O)(=O)c3ccc(Cl)cc3)c2)c1	i	0.8	18.1%	0.1%	-0.6%	-39.8%	-6.5%	-6.9%
Cc1ccc(C(=O)N2CCN(c3ccc(F)cc3)CC2)cc1S(=O)(=O)N1CCCCC1	i	1.4	7.4%	-2.4%	0.9%	2.2%	-3.7%	4.7%
Cc1ccc(SCc2cc(=O)[nH]c(SCC(=O)Nc3cc(Cl)ccc3Cl)n2)cc1	i	0.7	2.0%	-0.6%	10.0%	-40.6%	-6.4%	7.5%
C/C=C/Cn1c(SCCCc2ccccc2)nc2c1c(=O)[nH]c(=O)n2C	i	1.3	1.6%	-1.8%	1.8%	-1.3%	0.8%	-2.6%
CC(Sc1nnc2c(n1)[nH]c1ccccc12)C(=O)N(C)C1CCCCC1 (configuration not stated)	i	4.9	-2.5%	1.9%	0.0%	-8.3%	-4.2%	2.3%
COc1ccc(CC2(CO)CCN(CC3=Cc4cc(Cl)ccc4OC3)CC2)cc1	i	0.0	-2.9%	-0.5%	nt	-14.3%[20 µM]	-4.2%	3.8%

A different layout for 4 compounds above:
CN1/C(=C\C=C\C2=[N+](C)c3ccc4ccccc4c3C2(C)C)C(C)(C)c2ccccc21
- Myeloid diff 2: nt
- Myeloid diff 2 GFP+ MAC1+ %: nt
- Salmonella PhoP GFP: 10.2µM*
- HIV peptide binding: 65.1%*
- KOR beta-arrestin-1: 4.2%
- KOR beta-arrestin-2: -44.6%
- LYP phosphatase: -10.0%
- SIAH1 antagonists: nt
Cc1cccc(NC(=O)c2cccc(NS(=O)(=O)c3ccc(Cl)cc3)c2)c1
- Myeloid diff 2: i
- Myeloid diff 2 GFP+ MAC1+ %: 0.8
- Salmonella PhoP GFP: 18.1%
- HIV peptide binding: 0.1%
- KOR beta-arrestin-1: -0.6%
- KOR beta-arrestin-2: -39.8%
- LYP phosphatase: -6.5%
- SIAH1 antagonists: -6.9%
Cc1ccc(C(=O)N2CCN(c3ccc(F)cc3)CC2)cc1S(=O)(=O)N1CCCCC1
- Myeloid diff 2: i
- Myeloid diff 2 GFP+ MAC1+ %: 1.4
- Salmonella PhoP GFP: 7.4%
- HIV peptide binding: -2.4%
- KOR beta-arrestin-1: 0.9%
- KOR beta-arrestin-2: 2.2%
- LYP phosphatase: -3.7%
- SIAH1 antagonists: 4.7%
Cc1ccc(SCc2cc(=O)[nH]c(SCC(=O)Nc3cc(Cl)ccc3Cl)n2)cc1
- Myeloid diff 2: i
- Myeloid diff 2 GFP+ MAC1+ %: 0.7
- Salmonella PhoP GFP: 2.0%
- HIV peptide binding: -0.6%
- KOR beta-arrestin-1: 10.0%
- KOR beta-arrestin-2: -40.6%
- LYP phosphatase: -6.4%
- SIAH1 antagonists: 7.5%

(more compounds)
SMILES	Myeloid diff 2	Myeloid diff 2 GFP+ MAC1+ %	Salmonella PhoP GFP	HIV peptide binding	KOR beta-arrestin-1	KOR beta-arrestin-2	LYP phosphatase	SIAH1 antagonists
COc1cc(/C=C(/C(=O)c2cccs2)c2nc3ccccc3[nH]2)ccc1O	i	3.4	1.4%	0.4%	0.3%	34.9%	-1.2%	-4.4%
O=C(Nc1nc2c(F)cc(F)cc2s1)c1ccc([N+](=O)[O-])o1	i	2.3	nt	3.0%	-1.1%	-72.5%[20 µM]	-6.3%	-2.5%
CC1=CC(=Cc2sc3ccccc3[n+]2C)C=C(C)O1	?	nt	-1.5%	0.3%	-3.6%	23.6%	-3.5%	-9.6%
Cc1nc2c(=O)n(C)c(=O)nc-2n(C)n1	?	nt	1.15µM*	2.1%	-4.7%	-86.8%	87.9%*	-1.4%
CCOc1ccc(-c2nc(CSCC(=O)N3CCN(c4cccc(OC)c4)CC3)c(C)o2)cc1	i	9.9	-0.8%	0.2%	-2.0%	2.7%	-3.0%	0.2%
CN(C)S(=O)(=O)N1CCC(Oc2cccc(C(=O)NC3CCCCC3)c2)CC1	i	2.1	-5.1%	3.2%	-2.7%	-20.4%	-6.1%	5.4%

Looked up by compound from above (3):
SMILES	Myeloid diff 2	Myeloid diff 2 GFP+ MAC1+ %	Salmonella PhoP GFP	HIV peptide binding	KOR beta-arrestin-1	KOR beta-arrestin-2	LYP phosphatase	SIAH1 antagonists
CC1=CC(=Cc2sc3ccccc3[n+]2C)C=C(C)O1	?	nt	-1.5%	0.3%	-3.6%	23.6%	-3.5%	-9.6%
O=C(Nc1nc2c(F)cc(F)cc2s1)c1ccc([N+](=O)[O-])o1	i	2.3	nt	3.0%	-1.1%	-72.5%[20 µM]	-6.3%	-2.5%
COc1cc(/C=C(/C(=O)c2cccs2)c2nc3ccccc3[nH]2)ccc1O	i	3.4	1.4%	0.4%	0.3%	34.9%	-1.2%	-4.4%
